VDR inhibitor = Inhibitors of the vitamin D receptor (VDR): qHTS; Potency, µM, for the others: max response, negative = inhibition, actives largely listed as inhibitors; AID 504847, 2011; Vitamin D3 receptor (Homo sapiens), P11473; VDR-SRC2-3 peptide fluorescence polarization, 2 h; actives 0.93% (n = 400,000); active means well fitted inhibition curve with a large enough effect; inconclusive means small, poorly fitted or top-dose-only effect, or another doubt; inactive means no such curve, though single readings can be large or run the other way; further: series mostly up to about 120 µM
Target sequence (P11473 whole entry, looked up): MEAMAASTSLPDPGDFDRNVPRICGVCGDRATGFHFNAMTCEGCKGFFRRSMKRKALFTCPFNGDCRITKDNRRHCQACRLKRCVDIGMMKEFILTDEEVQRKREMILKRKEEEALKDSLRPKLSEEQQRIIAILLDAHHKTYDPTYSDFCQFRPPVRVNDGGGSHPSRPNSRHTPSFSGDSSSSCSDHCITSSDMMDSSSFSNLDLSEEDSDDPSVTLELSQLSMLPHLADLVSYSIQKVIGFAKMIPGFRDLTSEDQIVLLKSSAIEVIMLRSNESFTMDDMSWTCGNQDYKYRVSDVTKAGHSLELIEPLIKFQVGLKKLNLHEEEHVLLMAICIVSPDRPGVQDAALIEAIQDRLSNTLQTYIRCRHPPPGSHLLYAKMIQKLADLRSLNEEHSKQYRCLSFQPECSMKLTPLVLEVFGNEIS
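The screen uses fluorescence polarization to detect compounds that interfere with recruitment of the SRC2-3 coactivator peptide to VDR; plates are read after 2 h at room temperature.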
* marks the source's active call; other numbers are inactive results; ? = inconclusive; & = joins results of further samples; [ ] = remark or other dose. On the % scale 0 is the no-effect control and ±100 the full control effect; potency means the concentration at half of the fitted maximal effect. A portion of the library; rates above refer to the full screens.

SMILES	VDR inhibitor
C[C@H]1CCCC(=O)CCCCCc2cc(O)cc(O)c2C(=O)O1	?
COC(=O)C1=C(c2cc3ccccc3o2)C[C@@H]2CC[C@H]1N2C	-17.5%
Cc1nc2c(=O)n(C)c(=O)nc-2n(C)n1	?
Cn1c(O)c(C=NCCN2CCOCC2)c(=O)n(C)c1=S	-17.8%
O=C(Cc1ccccc1)N1CCN(Cc2ccccc2Cl)CC1	3.3%
CC1CN=C(Nc2ccc(F)c(Cl)c2)S1 (stereo not given)	4.6%
CN1CCC(O)(c2ccc(Cl)cc2)C(C(=O)c2ccc(Cl)cc2)C1 (stereo not given)	?
Cc1cc(N)n(C2CCN(C)CC2)n1	10.5%
CC(=O)N1CCC2(CC1)CC(=O)c1cc(OCC(=O)N3CCC4(CC3)OCCO4)ccc1O2	-6.4%
C=Cn1ccnc1P(=S)(c1ccn(C)c1)c1nccn1C=C	-5.9%
COCCOC(=O)C1=C(N)Oc2c(c(=O)oc3ccccc23)[C@@]12C(=O)Nc1ccccc12	6.2%
COC(=O)C1=C(c2cccc(C#N)c2)C[C@@H]2CC[C@H]1N2C(=O)NCCCOC(C)C	-2.0%
COCCNCCOc1ccc(C(C)(C)c2ccccc2)cc1	4.0%
CC(=O)Nc1nnc(CCN(CCc2nnc(NC(C)=O)s2)[N+](=O)[O-])s1	8.5%
CCCn1c(C(=O)c2ccc(OC)cc2)nc2ccccc21	22.2%
CCn1c(C(=O)N2CCC(C(=O)N3CCC4(CC3)OCCO4)CC2)cc2sccc21	13.6%
CCOc1c(P(=S)(N(C)C)N(C)C)c(C)nn1-c1ccccc1	5.1%
CC(C)NC(=O)c1ccc(N2CC3CC(C2)c2cccc(=O)n2C3)c([N+](=O)[O-])c1 (stereo not given)	-7.7%
CN1C(=O)C(=Cc2sc(=O)n(-c3ccccc3)c2N2CCCCC2)C(=O)N(C)C1=O	-20.0%
CC1CCCCN1Cc1ccc(Cl)nc1 (stereo not given)	-5.4%
CC1CC(C)OP(=O)(OCCC#N)O1 (stereo not given)	-5.4%
CC1(C)C(=O)CCC2C1=CCC1C2CCC2(C)C(O)CCC12 (stereo not given)	-9.0%
N#Cc1ccccc1NC(=O)CN1CC=C(c2ccccc2)CC1	-7.4%
COc1cccc(CC(=O)N2CCN(Cc3cccc(Cl)c3)CC2)c1	2.2%
C[C@@H]1CC[C@H]2[C@H](C)[C@H]3CC[C@@]4(O)[C@@H]5CC(=O)[C@H]6CC(=O)CC[C@]6(C)[C@H]5C[C@H]4[C@@H]3CN2C1	5.0%

Sorted by number of heavy atoms (smallest number first): some entries from above.
SMILES	VDR inhibitor
Cc1cc(N)n(C2CCN(C)CC2)n1	10.5%
CN1CCC(O)(c2ccc(Cl)cc2)C(C(=O)c2ccc(Cl)cc2)C1 (stereo not given)	?
COCCOC(=O)C1=C(N)Oc2c(c(=O)oc3ccccc23)[C@@]12C(=O)Nc1ccccc12	6.2%

(more compounds)
SMILES	VDR inhibitor
C/C(=N\NC(=O)c1ccccc1)c1c(O)n(C2CCCCC2)c(=O)[nH]c1=O	-9.0%
COc1ccc(CN2CCN(C(=O)COc3ccc4ccccc4c3)CC2)c(OC)c1	12.6%
CCN1C[C@]2(COC)CC[C@H](OC)[C@@]34C5C[C@@H]6[C@@H](OC)C[C@@]7(OCO[C@@]7([C@@H](O)C23)[C@@H]14)C5[C@H]6OC (stereo not given in full)	3.3%
Cc1cc(C)cc(N2C(=O)NC(=O)/C(=C/c3cccn3-c3ccc(Cl)cc3)C2=O)c1	-4.9%
CCCCCn1c(=O)c(C(=O)Nc2ccccc2Cl)c(O)c2ccccc21	-1.8%
O=C1/C(=C\c2ccc(Cl)c(Cl)c2)N2CCC1CC2	?
O=C(NCC(c1cccnc1)N1CCOCC1)Oc1ccccc1 (stereo not given)	-6.1%
CC1CC2C(C(O)CC3(C)C(O)CCC23)C2(C)CCC(=O)C=C12 (stereo not given)	9.5%
C=CCN1C(=O)/C(=C\c2ccc(N3CCOCC3)o2)C(=O)NC1=S	-20.2%
CCCCn1c(N)c(C(=O)OCC2CCCO2)c2nc3ccccc3nc21 (stereo not given)	12.4%
Cc1[nH]c2ccc(OC(F)(F)F)cc2c1CCNCc1ccc(Cl)cc1	-13.1%
CC(=O)OC1(c2ccc(C)cc2)CN2CCC1c1ccccc12 (stereo not given)	-3.1%
O=C(CN1CCCC1=O)NCCc1ccccc1	8.3%
O=C(c1ccc(N2CC3CC(C2)c2cccc(=O)n2C3)c([N+](=O)[O-])c1)N1CCCC1 (stereo not given)	-3.7%
COc1ccc(CC2c3cc(OC)c(OC)cc3CCN2C)cc1O (stereo not given)	-18.7%
O=[N+]([O-])c1ccc(N2CCNCC2)cc1NCC1CCCO1 (stereo not given)	10.6%
CN(C)C(=O)Oc1cccc(-c2cn3cc(Cl)ccc3n2)c1	-16.8%
Cc1ccc(-n2c(O)c(C=NCCCn3ccnc3)c(=O)[nH]c2=O)cc1	-7.8%
COC(=O)c1c(C)n(Cc2ccco2)c2ccc(O)cc12	7.1%
COc1ccc(N=C(C)c2c(O)n(C3CCCCC3)c(=O)[nH]c2=O)c(OC)c1	10.5%
C[C@@H]1C[C@H]2CC[C@H](O2)[C@H](C)C(=O)O[C@@H](C)C[C@@H]2CC[C@@H](O2)[C@@H](C)C(=O)O[C@H](C)C[C@H]2CC[C@H](O2)[C@H](C)C(=O)O[C@@H](C)C[C@@H]2CC[C@@H](O2)[C@@H](C)C(=O)O1	8.0%
O=c1[nH]c(=O)n(C2CCCCC2)c(O)c1/C=C/C=Nc1ccccc1	9.0%
CCCC(=O)NC(Oc1ccc(Cl)cc1Cl)C(Cl)(Cl)Cl (stereo not given)	2.7%
COc1ccc2[nH]c(C)c(CCNCc3cc(OC)c(OC)c(OC)c3)c2c1	7.8%
CCC(Oc1ccc(Cl)cc1)C(=O)OC1CC2CCC(C1)N2C (stereo not given)	-0.4%

More structures:
SMILES	VDR inhibitor
COC(=O)C1=C(c2ccc(F)cc2F)C[C@@H]2CC[C@H]1N2C	-3.2%
CCCCCCCCCCCCCC(=O)O[C@@H]1[C@@H](C)[C@@]2(O)[C@@H](C=C(CO)C[C@@]3(O)C(=O)C(C)=C[C@@H]23)C2C(C)(C)[C@@]21OC(C)=O (stereo not given in full)	-3.8%
Cc1ccc(CN2CCCN(Cc3ccc(Cl)cc3)S2(=O)=O)cc1	5.4%
O=C1NC(=O)C(=Cc2cccc(OCCOc3ccccc3)c2)C(=O)N1	?
Cc1cc(C=C(C#N)C#N)ccc1N1CCCC1	?
CCN(CC)c1ccc(C=C2C(=O)NC(=S)NC2=O)cc1	?
CCN1CCN(S(=O)(=O)c2ccc(Cl)c(C(=O)Nc3ccc(C(=O)N(CC)CC)cc3)c2)CC1	19.3%
CC(C)(O)/C=C/C(=O)[C@](C)(O)C1[C@H](O)C[C@@]2(C)C3CC=C4C(C[C@H](O)[C@@H](O)C4(C)C)[C@]3(C)C(=O)C[C@]12C (stereo not given in full)	-2.5%
CC1CC2(O)c3no[n+]([O-])c3CCC2N1O (stereo not given)	6.7%
CC1Oc2cc3c(-c4c(O)cc(O)c5c(O)c6c(cc45)OC(C)C(C)C6=O)c(O)cc(O)c3c(O)c2C(=O)C1C (stereo not given)	79.4µM*
COC(=O)C1=C(c2ccccc2OCc2ccccc2)C[C@@H]2CC[C@H]1N2C(=O)NCc1ccc(N(C)C)cc1	-1.5%
CC[C@@]1(O)CC(O)c2c(cc3c(c2O)C(=O)c2c(O)ccc(O)c2C3=O)C1C(=O)OC (stereo not given in full)	?
CCN(CC)CCCN=C(C)c1c(O)n(C2CCCCC2)c(=O)[nH]c1=O	6.8%
COC(=O)C1=C(c2ccc(S(C)(=O)=O)cc2)C[C@@H]2CC[C@H]1N2C(=O)NC1CC1	-11.4%
O=[N+]([O-])c1ccc(N2CCCC2)c2ccncc12	0.9%
OC1(c2ccc(F)cc2)CC2CCC(C1)N2Cc1nnnn1C1CCCCC1 (stereo not given)	4.9%
O=C1NC(=O)N(c2ccccc2F)C(=O)/C1=C/c1cn(CC(=O)N2CCOCC2)c2ccccc12	?
COc1cccc(CN2CCN(C(=O)Cc3ccccc3OC)CC2)c1	-6.9%
Cc1nnc(NC(=O)c2cccn(Cc3ccccc3F)c2=O)s1	3.2%
COCCNC(=O)CN1C(=O)C(C)N=C(c2ccccc2)c2cc(Cl)ccc21 (stereo not given)	-24.2%
Cn1c(O)c(/C=C2\N=c3ccccc3=C2CCNC(=S)NC2CC2)c(=O)n(C)c1=O	70.8µM*
O=C1NC(=O)C(CCc2ccncc2)(Cc2ccc(OCc3ccccc3)cc2)C(=O)N1	-9.3%
C(#CCN1CCOCC1)COCC#Cc1ccccc1	14.5%
CCOc1cc(CNCCc2cccc(F)c2)ccc1OC	4.9%
COC(=O)c1ccccc1N=Cc1c(O)[nH]c(=S)[nH]c1=O	-7.3%

Of the compounds above, these contain an aryl methoxy group.
SMILES	VDR inhibitor
CCCn1c(C(=O)c2ccc(OC)cc2)nc2ccccc21	22.2%
COc1cccc(CC(=O)N2CCN(Cc3cccc(Cl)c3)CC2)c1	2.2%
COc1ccc(CN2CCN(C(=O)COc3ccc4ccccc4c3)CC2)c(OC)c1	12.6%
COc1ccc(CC2c3cc(OC)c(OC)cc3CCN2C)cc1O (stereo not given)	-18.7%
COc1ccc(N=C(C)c2c(O)n(C3CCCCC3)c(=O)[nH]c2=O)c(OC)c1	10.5%
COc1ccc2[nH]c(C)c(CCNCc3cc(OC)c(OC)c(OC)c3)c2c1	7.8%
COc1cccc(CN2CCN(C(=O)Cc3ccccc3OC)CC2)c1	-6.9%
CCOc1cc(CNCCc2cccc(F)c2)ccc1OC	4.9%

Next results.
SMILES	VDR inhibitor
O=C(NC1CCCCC1)[C@@H]1CC=C[C@@H]2CCN(Cc3ccccc3)C(=O)[C@@H]21	-10.5%
CC1(C)C(=O)C=C[C@]2(C)[C@H]3CC[C@@]4(C)[C@H](c5ccoc5)OC(=O)[C@H]5O[C@]54[C@]3(C)[C@H](O)C[C@@H]12	-9.9%
Cc1ccccc1-n1c(C)nc2ccsc2c1=O	30.0%[activator]
CCOC(=O)C1(CCc2ccccc2)CCN(Cc2cccc3cnccc23)CC1	3.1%
CC12C=CC(=O)C=C1CC(O)C1C2CCC2(C)C1CCC2(C)O (stereo not given)	-12.8%
CNCC/C=C/c1cccnc1	9.1%
CCc1ccc(CN2CCN(C(=O)Cc3ccccc3)CC2)cc1	-8.3%
Cc1ccc2c(c1)C1CN(C)CCC1N2C(=O)Nc1cccc(C(F)(F)F)c1 (stereo not given)	2.5%
CCCCC/C=C\C=C\[C@H](CCCCCCCC(=O)O)OO	-1.2%&11.4%
COc1ccc(OCC(=O)N2CCN(CCc3ccncc3)CC2)cc1	4.8%
O=C(CCl)Nc1nccs1	16.7%
CC(C)(C)NCC(O)c1cc(Cl)c(N)c(C(F)(F)F)c1 (stereo not given)	-4.2%
C=C(CO)CC1CC(O)[C@]2(C)OC3CC4OC5C[C@]6(C)O[C@]7(C)CCC8OC9C[C@]%10(C)OC%11C(C)=CC(=O)OC%11CC%10OC9C[C@@H](C)C8OC7CC6O[C@]5(C)C/C=C\C4OC3CC2O1 (stereo not given in full)	-0.5%
CC(=O)c1ccc(-c2ccccc2)cc1	-2.1%
Cc1cc(C)cc(NC(=O)CCNC(=O)N2C[C@H]3C[C@@H](C2)c2cccc(=O)n2C3)c1	-4.9%
CCOC(=O)c1sc(/N=C/c2c(O)n(-c3ccccc3)c(=O)[nH]c2=O)c(C#N)c1C	?
O=C(c1cc2c(s1)CCCCCC2)N1CCC2(CC1)OCCO2	6.4%
O=C(C[n+]1ccn(CCCNP2(=O)C=C(c3ccccc3)OC(c3ccccc3)=C2)c1)c1ccccc1	-6.2%
CC(=O)OC1C[C@H](O[C@@H]2C(O)C[C@H](O[C@@H]3C(O)C[C@@H](OC4CC[C@]5(C)C(CCC6C5CC(O)[C@@]5(C)C(C7=CC(=O)OC7)CC[C@@]65O)C4)OC3C)OC2C)O[C@H](C)[C@H]1O[C@H]1OC(CO)C(O)C(O)C1O (stereo not given in full)	5.1%
COc1ccc(-n2c(/C=C/c3ccc(O)c(OC)c3)nc3ccccc3c2=O)cc1	-15.6%
Cc1cccc(CN2CCN(C(=O)Cc3ccccc3)CC2)c1	-3.7%
O=c1[nH]c(=O)n(Cc2ccco2)c(O)c1/C=N/N1CCCCCC1	14.6%
CC(NC1CCCCC1)C(O)C12CC3CC(CC(C3)C1)C2 (stereo not given)	6.1%
O=C1NC(=O)N(Cc2ccccc2)C(=O)/C1=C\N1CCCc2ccccc21	35.5µM*
CCCNc1oc(-c2cccc3ccccc23)nc1C#N	2.8%

(listing goes on)
SMILES	VDR inhibitor
O=C(Nc1cccc2ccccc12)N1CCC2(CC1)OCCO2	-0.3%
O=P(Nc1ccccc1)(Nc1ccccc1)Oc1cccc(Cl)c1	-7.5%
O=C(O)Cn1cc(C(=O)c2ccccc2)c2ccccc21	-7.2%
Cc1cc(N(CCCl)CCCl)ccc1/C=N/NC(=O)c1ccco1	-8.2%
CCOC(=O)CC(SP1(=S)OCC2(CCCCC2)CO1)C(=O)OCC (stereo not given)	-15.2%
Cn1c(O)c(N=Nc2ccc(S(=O)(=O)N3CCOCC3)cc2)c(=O)n(C)c1=O	-13.2%
COc1ccccc1CN1CCCC(C(=O)c2ccccc2OC)C1 (stereo not given)	12.2%
Cc1cccc(OCC(=O)N2CCN(CCc3ccccn3)CC2)c1	-2.4%
C[C@]12CCC3C(CC[C@H]4C[C@H](O)CC[C@]34C)C1CC(=O)[C@@H]2O (stereo not given in full)	5.7%
CN1C2CCC1CC(OC(c1ccccc1)c1ccccc1N)C2 (stereo not given)	0.7%&1.7%
C=C(C)C(=O)CP(=O)(OCC)OCC	-7.0%
O=C(c1ccc(N2CCCCC2)c([N+](=O)[O-])c1)N1CCC2(CC1)OCCO2	-18.7%
CN(C)c1ccc(C=C2C(=O)NC(=O)NC2=O)cc1[N+](=O)[O-]	-27.6%
CCOP(=S)(OCC)Oc1nc(Cl)c(Cl)cc1Cl	31.6µM*

Assay outcomes as filed in PubChem.
